Screening data as filed in PubChem.
Rango dissoc inh: inhibitors of RanGTP-induced Rango-importin beta complex dissociation; O95149+P62826; Biochemical FRET Rango-importin beta, RanGTP-induced dissociation; Potency, µM (doses to about 46.1 µM), for the others: at the top dose activity change, negative = inhibition; 340,000 compounds, 0.071% hits; AID 540253; active means falling FRET ratio curve, often poorly fitted, with flat reads before Ran was added; inconclusive means other falling curves, or compound fluorescence or quenching; inactive means flat or rising ratio curve;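 further: potency means the concentration at half of the fitted maximal effect; % of control where 0% means no effect; nearly all actives have a fitted effect of over 45% in size; -100% = wells without RanGTP and RCC1; the record marks most hits as doubtful in a second field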
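Recombinant Rango FRET biosensor (EYFP–snurportin 1 IBB–cerulean CFP10) at 0.1 uM premixed with 0.25 uM importin beta in PBS, 1 mM DTT, 0.02% Tween-20, 0.1% BSA. Compound added 5 min; RanGTP-RCC1 (0.6 uM Ran, 2 mM GTP, 0.2 uM RCC1) then triggers release, read at 45 min.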
miR-21 FLuc: miR-21 reporter, rising signal | HeLa miR-21 FLuc reporter, luciferase, 48 h | Potency, µM (highest dose often 38.3 µM), without a hit: at the top dose reporter change, positive = more light | 340,000 tested, under 10 active | AID 2288; active = well fitted rising curve with a large enough effect; inconclusive = small, poorly fitted or top-dose-only effect; inactive = no such curve, though single readings can be large or run the other way;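 further: % of control where 0% means no effect; miR-21 action dims this reporter so a rising signal means less miR-21 action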
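Luminescence from a firefly luciferase reporter carrying a miR-21 binding site downstream, stably expressed under a CMV promoter in HeLa cells that make miR-21 endogenously, reports miRNA modulation after 48 h compound exposure up to approximately 40uM final.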
GLA inh pH 4.5: alpha-galactosidase A (human) inhibition, pH 4.5. P06280. purified enzyme, 4-MU-alpha-Gal fluorescence, pH 4.5. activity change, negative = inhibition, % at 105 µM. 230,000 tested, under 10 active. AID 1467; inconclusive = small, poorly fitted or top-dose-only inhibition, or a rising curve; inactive = flat fitted curve, though single readings scatter; no compound was filed as active;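 further: 0% = full activity with enzyme and -100% = basal without enzyme; dose as in the result columns while the protocol names 77 µM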
Rango complex inh: prevents formation of the Rango-importin beta complex; Potency, µM (doses to about 92.2 µM), inactives show top-dose inhibition of complex formation; Q14974; 340,000 compounds, 0.031% hits; Rango CFP/YFP FRET sensor + importin beta, 45 min; active = rising FRET ratio curve, often small or poorly fitted; inconclusive = mostly compound fluorescence or quenching in the first reads; inactive = flat curves in all reads;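 further: potency means the concentration at half of the fitted maximal effect; 0% = DMSO wells and 100% = buffer wells lacking importin beta; nearly all actives have a fitted effect of over 15% in size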
Target sequence (Q14974 whole entry, looked up): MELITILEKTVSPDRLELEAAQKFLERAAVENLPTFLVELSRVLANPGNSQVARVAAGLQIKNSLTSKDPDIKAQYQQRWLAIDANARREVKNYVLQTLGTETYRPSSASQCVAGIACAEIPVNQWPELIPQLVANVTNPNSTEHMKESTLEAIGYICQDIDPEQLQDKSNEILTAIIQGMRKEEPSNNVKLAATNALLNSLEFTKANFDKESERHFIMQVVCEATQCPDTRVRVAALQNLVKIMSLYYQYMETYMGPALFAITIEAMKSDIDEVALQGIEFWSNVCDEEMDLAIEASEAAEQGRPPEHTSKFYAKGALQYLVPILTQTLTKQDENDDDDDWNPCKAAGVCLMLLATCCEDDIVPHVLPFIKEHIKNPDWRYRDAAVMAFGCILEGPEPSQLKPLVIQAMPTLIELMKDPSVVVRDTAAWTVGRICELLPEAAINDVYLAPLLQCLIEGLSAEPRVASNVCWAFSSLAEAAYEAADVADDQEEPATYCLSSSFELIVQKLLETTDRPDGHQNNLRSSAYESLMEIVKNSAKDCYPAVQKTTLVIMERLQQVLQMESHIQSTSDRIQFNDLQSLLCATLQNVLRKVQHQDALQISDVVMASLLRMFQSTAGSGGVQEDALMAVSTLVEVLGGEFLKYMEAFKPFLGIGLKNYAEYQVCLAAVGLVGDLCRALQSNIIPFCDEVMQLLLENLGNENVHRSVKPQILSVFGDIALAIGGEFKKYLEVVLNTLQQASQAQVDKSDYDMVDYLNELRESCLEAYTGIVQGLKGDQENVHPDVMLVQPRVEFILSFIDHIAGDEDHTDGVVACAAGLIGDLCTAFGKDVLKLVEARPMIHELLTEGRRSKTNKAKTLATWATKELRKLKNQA
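FRET biosensor (snurportin 1 IBB flanked by EYFP and cerulean), 50 nM, with compound 5 min, then 0.125 microM importin beta in PBS, 1 mM DTT, 0.02% Tween-20, 0.1% BSA. CFP/YFP ratio read after 45 min at room temperature; pre-read flags interference.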
Active calls of the source: *; u = inconclusive; x = no result given; & = joins results of further samples. Some of the compounds tested (hit frequency here may not be typical).

SMILES	Rango dissoc inh	miR-21 FLuc	GLA inh pH 4.5	Rango complex inh
CC(OC(=O)c1cc2sccc2n1C)C(=O)NCc1cccs1 (stereo unspecified)	-6%	11%	4	u
COc1ccccc1-c1nc(COc2ccc(Cl)cc2Cl)no1	9%	-70%	-15	0.3%
CCOC(=O)c1nn(-c2ccc(Cl)cc2)c2nnc(Cc3ccccc3)c(=O)n12	8%	-4%	-2	-3.3%
N=c1c(C(=O)NCCc2ccccc2)cc2c(=O)n3ccccc3nc2n1Cc1ccco1	u	4%	x	u
Cc1nc(NC(=O)COC(=O)[C@@H](NC(=O)c2ccco2)C(C)C)c(Cl)cc1Cl	0%	x	x	0.3%
O=C(NCC1OCCc2ccccc21)c1cc(COc2c(F)cccc2F)on1 (stereo unspecified)	-21%	-27%	5	0.5%
Cc1cc(C(=O)C(C)Cl)c(C)n1Cc1ccco1 (stereo unspecified)	-12%	6%	-2	-4.1%
COc1ccccc1C(=O)C1CCCN(C(=O)c2ccccc2C(C)=O)C1 (stereo unspecified)	12%	-33%	x	3.8%
COc1ccc(NC(=O)CN2CCC(C(N)=O)(N3CCCCC3)CC2)c(OC)c1	-4%	0%	0	0.3%
Cc1ccc(-n2cc(-c3ccccc3)c3c(N4CCOCC4)ncnc32)cc1	14%	9%	-21	3.6%
CCCCCCCCCCCCS[C@H]1CS(=O)(=O)C[C@@H]1O	-1%	-10%	-6	-0.2%
O=C(CCN1CCCCC1)N/N=C/c1ccc(Br)cc1	2%	-7%	1	u
Cc1cccc(/C=C/C(=O)c2cc(Br)ccc(=O)c2O)c1	u	u	5	-0.1%
CC(=O)c1ccc(N2CCN(C(=O)c3cc(-c4ccncc4)nc4ccc(Cl)cc34)CC2)cc1	4%	4%	x	1.3%
O=C(Cn1c(C(F)(F)F)nc2ccccc21)Nc1ccccc1N1CCOCC1	-9%	-10%	-6	-0.7%

Profiles from above. Order of values: Rango dissoc inh, miR-21 FLuc, GLA inh pH 4.5, Rango complex inh
CC(OC(=O)c1cc2sccc2n1C)C(=O)NCc1cccs1 (stereo unspecified) is listed with -6%, 11%, 4, u
O=C(NCC1OCCc2ccccc21)c1cc(COc2c(F)cccc2F)on1 (stereo unspecified) is listed with -21%, -27%, 5, 0.5%
Cc1cccc(/C=C/C(=O)c2cc(Br)ccc(=O)c2O)c1 is listed with u, u, 5, -0.1%

(list continues)
SMILES	Rango dissoc inh	miR-21 FLuc	GLA inh pH 4.5	Rango complex inh
CCN(CC)S(=O)(=O)c1ccc(C)c(NC(=O)Cc2ccc(S(=O)(=O)N3CCOCC3)s2)c1	0%	8%	x	-0.1%
COc1ccc(N=C2SCC(c3ccc(C)cc3)=NN2CCO)cc1	0%	-7%	-7	3.6%
CS(=O)(=O)N(CCc1ccccc1)CC(=O)N1CCc2ccccc2C1	-12%	-7%	4	-3.3%
O=C(Cn1c(=O)c2ccccc2n(CC(=O)N2CCCCC2)c1=O)N1CCCCC1	-20%	-1%	-6	4.1%
O=S(=O)(NCCSc1ccc(Cl)cc1)c1ccc(F)cc1	39%	-9%	-12	1.7%
CN1C(=S)SC(/[N+]([O-])=C\c2ccccc2)C1(C)C (stereo unspecified)	-2%	0%	-4	3.7%
Cc1cc(O)c(NC(=O)c2cc([N+](=O)[O-])ccc2Cl)cc1C	2%	14%	6	1.0%
COc1ccc(CCC(C)NCCc2ccc(Cl)cc2Cl)cc1 (stereo unspecified)	0%	u	x	1.8%
CCCCN(CC)C(=O)c1cc2cc3ccc(Cl)cc3nc2o1	-13%	-47%	x	2.4%
COc1ccc(N2CCN(C(=O)C3CCN(S(=O)(=O)c4ccc(F)cc4)CC3)CC2)cc1	3%	1%	-14	11%
COc1ccc(NS(=O)(=O)c2ccc(NC(=O)c3ccc(CN4CCOCC4)cc3)cc2)cc1	0%	1%	4	5.1%
O=C1NC(=O)C2(CCCC2C(=O)O)N1 (stereo unspecified)	1%	x	x	5.1%
CCOC(=O)CSc1nc2c(sc(=S)n2-c2ccccc2OC)c(=O)n1-c1ccccc1OC	1%	-1%	x	-3.0%
CCOc1ccc(Oc2c(/C=N/NC(N)=O)c(C)nn2-c2ccccc2)cc1	4%	-18%	1	3.3%
Cc1cc(C(F)F)n2ncc(C(=O)N3CCC(C(N)=O)CC3)c2n1	-2%	0%	3	-0.8%
O=C(Nc1ccc2c(c1)OCCO2)C1CC(O)CN1C(=O)Nc1ccccc1 (stereo unspecified)	2%	-2%	x	0.2%
COC(=O)[C@@H](N)Cc1ccc(O)c(O)c1	12%	x	-2	-0.6%
Cc1nc2ccccn2c1-c1csc(Nc2ccc(C(=O)O)cc2)n1	10%	19%	x	-3.7%
CCc1cc(C(=O)NNC(=S)Nc2cc(C)ccc2C)cs1	-1%	-38%	2	3.5%
COc1ccc(-n2c(-c3ccc(Br)cc3)nc(=S)c3c2CCCC3)cc1	-6%	-5%	-8	0.0%
Cn1cc(CNCCN2CCCCC2=O)c(-c2cccc(Cl)c2)n1	-10%	-1%	2	-0.5%
COc1cc(C(=O)OCC(=O)NC(=O)c2cccn2C)ccc1OC(F)F	-4%	-3%	13	-3.4%
CC1Cc2ccccc2N1Cc1cc(=O)c(OCC(=O)NCCc2ccccc2)co1 (stereo unspecified)	3%	x	x	3.2%
COc1ccc(N(CN2C(=O)C3C4C=CC(C4)C3C2=O)C(=O)c2ccco2)cc1 (stereo unspecified)	3%	-3%	x	0.0%
CCN(CC)CCNC(=O)C(Cl)=C1C(Cl)=C(Cl)C(Cl)=C1Cl	-5%	x	x	-1.3%
C/C(=N\O)C(=O)NCCN(C)C	-6%	-5%	-9	3.5%
O=C(/C=C/c1ccccc1)NC(=S)Nc1ccccc1	-1%	-38%	x	-2.7%
O=C(Cc1ccccc1)NCC(=O)OCC(=O)c1cccs1	-9%	-1%	1	-1.4%
O=C(C1CCCCC1)N1CCN=C1SCc1cccnc1	-7%	-6%	-3	-2.0%
CCOc1ccc(S(=O)(=O)NCC(=O)OCc2nnc(-c3ccccc3)o2)cc1	8%	x	x	-3.6%
NC(=O)C1=NOC(CNc2ncc(C(F)(F)F)cc2Cl)C1 (stereo unspecified)	1%	-58%	-4	0.3%
Cc1ccc(NC(=O)CCc2c(C)nn(-c3ccc(N4CCOCC4)nn3)c2C)cc1C	1%	-25%	x	-1.8%
CCOc1ccc(NC(=O)Nc2cccc(C)n2)cc1	-1%	-41%&-52%	x	-0.5%
COc1ccc(Cn2nnnc2C(C(C)C)N2CCc3ccccc32)cc1 (stereo unspecified)	-6%	-8%	-1	-0.1%
Nc1cccc(-n2nncc2-c2ccccc2)c1	2%	0%	3	0.7%
COc1ccc(NC(=O)CN2CCN(c3c(C)cccc3C)CC2)cc1	-16%	3%	x	-2.9%
O=S(=O)(c1ccccc1)c1nc(-c2ccc(F)cc2)oc1N1CCOCC1	3%	0%&-15%	x	4.1%
CC1(C)Cc2ccccc2-c2nnc(-c3cccnc3)n21	15%	-6%	0	0.5%
Cc1onc(-c2c(F)cccc2Cl)c1C(=O)Nc1cccc(S(=O)(=O)N2CCCCC2)c1	4%	x	x	-3.6%
O=C(CCN1C(=O)S/C(=C\c2ccccc2)C1=O)N1CCCCC1	-23%	-26%	x	-1.8%
CC(=O)Nc1cc2c3c(cccc3c1)-c1ccccc1-2	u	x	x	u
Cc1cccc(NC(=S)NNC(=O)c2csc(C(C)C)c2)c1	11%	-68%	7	-3.4%
Cc1ccc(NC(=O)c2cc3ccccc3o2)cc1Cl	-6%	-48%	x	2.4%
O=C(c1cccs1)N(C(=O)c1cccs1)c1ccc(Br)cn1	-1%	-20%	-3	-1.7%
COc1cc(NC(=O)C/C(C)=N/NC(=O)Cc2ccc(Cl)cc2)c(OC)cc1Cl	24%	-4%	-1	3.0%

An excerpt from above, reduced to Rango dissoc inh, GLA inh pH 4.5 and Rango complex inh:
SMILES | Rango dissoc inh | GLA inh pH 4.5 | Rango complex inh
O=S(=O)(c1ccccc1)c1nc(-c2ccc(F)cc2)oc1N1CCOCC1 | 3% | x | 4.1%
CC1(C)Cc2ccccc2-c2nnc(-c3cccnc3)n21 | 15% | 0 | 0.5%

(further entries)
SMILES	Rango dissoc inh	miR-21 FLuc	GLA inh pH 4.5	Rango complex inh
COc1ccccc1S(=O)Cc1ccc(C(=O)O)o1 (stereo unspecified)	-1%	0%	-1	-1.6%
CCn1cc([N+](=O)[O-])c(=O)c2cc(F)c(N3CCOCC3)cc21	-3%	3%	x	3.7%
COc1cc(NC(=O)CSc2nc3ccccc3c(=O)n2C)ccc1NC(=O)c1ccco1	-17%	3%	5	0.4%
COc1ccccc1NS(=O)(=O)c1cccc(C(=O)NN)c1	0%	-3%	5	-2.1%
CCC(C)NC(=O)c1cc(-c2ccc(OC)cc2)on1 (stereo unspecified)	18%	-50%	3	-4.9%
CCOC(=O)c1sc(NC(=O)/C=C/c2c(F)cccc2Cl)nc1C	4%	-2%	3	-1.9%
CCOC(=O)C1=C(NC(=S)NC(=O)c2ccccc2)c2ccccc2CC1C(C)C (stereo unspecified)	0%	21%	-4	0.6%
COc1ccc(-c2cc(C(=O)Nc3sc4c(c3C#N)CCCC4)c3ccccc3n2)cc1OC	-17%	1%	-2	0.1%
COC(=O)C1=C(CCc2ccccc2)NC(=O)NC1c1ccc(Br)cc1 (stereo unspecified)	0%	6%	x	-4.2%
CCN(CC(=O)Nc1c(F)cccc1F)C(=O)Cc1ccsc1	8%	x	x	-0.3%
COc1cccc(C(=O)NNc2c3ccccc3nc3ccccc23)c1	-2%	-11%	x	-2.0%
Cc1ccc(CNC(=O)Cn2cccc2C(=O)c2ccccc2)cc1	0%	-24%	8	-0.4%
O=C(CCn1c(=O)[nH]c2ccsc2c1=O)N1CCN(c2ccc([N+](=O)[O-])cc2)CC1	-19%	14%	x	-3.8%
Cn1cc(-c2nnc(-c3ccccc3)o2)c2ccccc21	0%	-39%	-25	2.9%
Clc1ccc2c(c1)C(N1CCNCC1)=Nc1ccccc1O2	7%	1%	-1&-4&3&-4	0.3%
O=C(O)C(Cc1ccc(OS(=O)(=O)Cc2ccccc2)cc1)NS(=O)(=O)Cc1ccccc1 (stereo unspecified)	-5%	x	x	5.5%
O=C(COC(=O)c1ccc(S(=O)(=O)N2CCCC2)cc1)NCc1ccc(Cl)cc1	-2%	-2%	3	0.2%
Cc1ccc(-c2ccc(=O)n(Cc3c(F)cccc3Cl)n2)cc1	-8%	-26%	x	1.9%
COc1cc2cc(CN(Cc3nnnn3Cc3ccco3)C3CCCCC3)c(=O)[nH]c2cc1OC	u	-2%	1	u
Cc1ccc(Cl)cc1NC(=O)C1C2CCC(O2)C1C(=O)O (stereo unspecified)	-5%	-5%	x	1.7%
CCOC(=O)NC(=O)/C(C#N)=N/Nc1ccc(F)cc1	5%	-8%	-13	5.3%
Cc1nn(CC(=O)NCc2ccccc2F)c(C)c1[N+](=O)[O-]	9%	-12%	-2	-1.2%
Cc1cc(C(=O)CSc2nnc3ccccn23)c(C)n1-c1ccccc1	33%	u	2	-0.1%
Cc1c(NC(=O)c2ccc(Br)o2)cccc1C(=O)O	4%	-42%	4	1.9%
Cc1occc1C(=O)NC(C)c1ccc2c(c1)OCO2 (stereo unspecified)	1%	-10%	0	0.7%
C/C(=N\NC(=O)c1ccn(C)n1)c1ccc(NC(=O)c2cccc(F)c2)cc1	2%	-46%	x	-3.9%
COC(=O)c1ccccc1NC(=O)CCS(=O)(=O)c1ccc(Br)cc1	-21%	-1%	-11	-4.9%
CCNC(=O)COc1ncnc2scc(-c3ccc(F)cc3)c12	0%	-3%	4	0.7%
COc1ccc(-n2c(SCC(=O)Nc3cccc(C(=O)O)c3)nnc2-c2ccco2)cc1	0%	-5%	x	4.9%
CCOC(=O)c1cc2sccc2n1Cc1ccc(C#N)cc1	4%	-6%	-9	0.1%
COc1ccc(CCN2C(=O)NC(NS(=O)(=O)c3ccc(NC(C)=O)cc3)(C(F)(F)F)C2=O)cc1OC (stereo unspecified)	18%	-3%&0%	4	-1.5%
Nc1cc(-c2ccc(Cl)cc2)nn1-c1ccccc1	14%	-52%	0	-3.9%
CCOc1cc(CNc2ccccc2)cc(Br)c1OCc1ccccc1F	1%	3%	6	4.4%
